Screens deposited in PubChem BioAssay by several laboratories.
Env fusion inh = inhibitors of HIV-1 Env-driven cell-cell fusion, primary screen, HeLa-JRFL effector, CEM21 target cells, luciferase; inhibition, % at 12.3 µM; hit rate 1.1% among 360,000; AID 651610, 2012;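 active = mean replicate inhibition score of at least 50 and every replicate individually at or above 50; inconclusive = only one of the two criteria met; inactive = mean below 50 and not all replicates reaching 50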;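 note: 0% = plate neutral controls and 100% = maraviroc near 300 nM; one replicate is shown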
eIF4H inh = human eIF4H binding inhibitors, primary screen, translation initiation inhibitor project, biochemical, uHTS, fluorescence polarization; inhibition, % at 35 µM; eIF4H fluorescence polarization binding assay; hit rate 0.94% among 290,000; AID 2012, 2009; Eukaryotic translation initiation factor 4H (Homo sapiens), Q15056;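 active = 50% or more with normal probe brightness, or confirmed in later tests; inconclusive = above 50% with abnormal brightness, or retests that disagree; inactive = below 50% or failed in later tests; about a fifth of its hits are not listed in these tables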;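 note: calls also rest on retests at 20 µM and on dose response follow-up; 0% = protein and probe with vehicle and 100% = probe without protein; strong numbers were not always called active; many hits fall short of the cut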
MT1-MMP act inh = blockers of MT1-MMP proenzyme processing, primary screen, HT1080 RFP-PRO-GFP cells, GFP/RFP fluorescence. Matrix metalloproteinase-14 (Homo sapiens), P50281. GFP/RFP ratio fluorescence, overnight; percent of plate control window, DMSO zero. GFP/RFP ratio change, % at 20 µM. hit rate 0.061% among 360,000;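 active = GFP/RFP ratio change of at least 30% with cell ATP level not reduced by more than half and red fluorescence within 50% of control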; note: strong numbers were not always called active
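Assay system – RFP-PRO-GFP reporter HT1080 cells · Compound dosing – single dose of 20 µM compound, 1% DMSO final · Incubation – overnight compound exposure at 37 °C · Measure – GFP/RFP fluorescence ratio · Benchmarks – DMSO wells and RFP-L50D-GFP cells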
Yeast UUG start = modulators of yeast start codon fidelity, primary screen, whole organism, S. cerevisiae, single point, plate reader; AID 602363, 2012; activity score, % at 18.7 µM; S. cerevisiae UUG-firefly luciferase reporter, luminescence/redox ratio; hit rate 0.13% among 350,000;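 active = replicate mean at a twofold rise or more, about +100% in these data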;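 note: firefly luciferase made from a UUG start codon reports start codon fidelity; reporter light over untreated wells divided by growth signal over untreated wells; some hits fall short of that in this replicate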
CSC inhib = cancer stem cell viability inhibitors, primary screen, luminescence; hit rate 1.1% among 300,000; AID 2717, 2010; cancer stem cell-like cells viability; inhibition, % at 7.5 µM;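 active = mean at 75% or more and at least half the replicates too; inconclusive = mean and replicates disagree; tested in HMLE shEcad cells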;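 note: 0% = median of negative and 100% = median of positive control wells; the first replicate is given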
Rce1 inh = yeast Rce1p protease inhibitors, primary screen, biochemical, fluorescence, cell-free homogeneous. calls only. hit rate 0.27% among 290,000. yeast membranes, quenched prenylated peptide cleavage fluorescence. CAAX prenyl protease 2 (Saccharomyces cerevisiae (strain ATCC 204508 / S288c)), Q03530;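 active = fall in fluorescence gain of 50% or more versus controls, with final raw signal at or below 3038400; inconclusive = same 50% fall but final raw signal above 3038400; inactive = fall in fluorescence gain under 50%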;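 note: plate controls were neutral control wells for no effect and wells lacking membranes for full effect; tested at 10 µM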
PABP polyA inh = PABP poly(A) RNA binding inhibitors, primary screen, biochemical, fluorescence polarization, uHTS; Polyadenylate-binding protein 1 (Homo sapiens), P11940; inhibition, % at 35 µM; hit rate 1% among 290,000; AID 2014, 2009;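 active = 50% or more with normal probe brightness, or confirmed in later tests; inconclusive = above 50% with abnormal brightness, or retests that disagree; inactive = below 50% or failed in later tests; about a fifth of its hits are not listed in these tables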;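 note: calls also rest on retests at 20 µM and on dose response follow-up; controls were probe without protein and protein plus probe with vehicle; some compounds called inactive have numbers as strong as hits; many hits fall short of the cut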
Target sequence (P11940 whole entry, looked up): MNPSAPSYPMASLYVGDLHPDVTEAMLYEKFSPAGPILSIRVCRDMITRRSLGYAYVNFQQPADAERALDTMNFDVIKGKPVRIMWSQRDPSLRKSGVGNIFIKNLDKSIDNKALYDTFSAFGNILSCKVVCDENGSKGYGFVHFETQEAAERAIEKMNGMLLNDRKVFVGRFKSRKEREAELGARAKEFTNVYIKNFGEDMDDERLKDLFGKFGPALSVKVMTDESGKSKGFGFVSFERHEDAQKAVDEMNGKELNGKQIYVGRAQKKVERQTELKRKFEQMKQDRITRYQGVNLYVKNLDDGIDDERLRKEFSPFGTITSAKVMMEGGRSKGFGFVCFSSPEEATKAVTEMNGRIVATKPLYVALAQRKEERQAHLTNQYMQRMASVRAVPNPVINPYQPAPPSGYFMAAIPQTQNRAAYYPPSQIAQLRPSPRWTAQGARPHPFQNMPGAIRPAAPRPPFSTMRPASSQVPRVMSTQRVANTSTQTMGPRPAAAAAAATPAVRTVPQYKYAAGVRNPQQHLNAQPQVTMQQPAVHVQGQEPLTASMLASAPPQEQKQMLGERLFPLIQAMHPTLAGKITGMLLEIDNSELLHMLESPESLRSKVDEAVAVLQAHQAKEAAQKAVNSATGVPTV
eIF4H inh retest = recorded beside eIF4H inh, whose call it bears; inhibition, %; compound at 20 µM; confirmation average;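 mean of two retest wells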
PABP polyA inh retest = recorded beside PABP polyA inh, whose call it bears; inhibition, %; compound at 20 µM; confirmation repeats;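 mean of two retest wells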
MT1-MMP act inh RFP = recorded beside MT1-MMP act inh, whose call it bears; RFP signal change, %; measured here: RFP expression control read;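 0 = vehicle wells; hits needed this value within 50% of zero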
The depositor's hits bear a star; i = inactive; ? = inconclusive; / = no result given; & = joins results of further samples; [ ] = another dose, or the depositor's remark.

SMILES	Env fusion inh	eIF4H inh	MT1-MMP act inh	MT1-MMP act inh RFP	Yeast UUG start	CSC inhib	Rce1 inh	PABP polyA inh	others
O=C(Nc1cccnc1)c1cc(-c2ccc(Br)cc2)on1	-84	0	0	3	-16	6	i	3
O=C(Nc1sc2c(c1C(=O)O)CCC2)c1ccccc1	-45	89	-3	12	-22	-9	i	32	eIF4H inh retest=-5;PABP polyA inh retest=8
CCN(CC)S(=O)(=O)c1ccc(C)c(NC(=O)CNCCN(C(C)C)C(C)C)c1	-10	7	-3	-2	/	-13	i	3
Cc1cc(CNC(=O)c2cccc([N+](=O)[O-])c2)c2ccccc2n1	61*	-2	-4	-12	-2	-1	i	8
O=C(NCCCCc1ccccc1)c1cccc(NC(=O)C2CCCCC2)c1	-35	/	-3	-7	3	/	/	/
Cc1c(O)ccc(C(=O)COc2ccc(F)cc2)c1O	/	-6	6	3	-26	4	i	-3
CCCOc1ccc(/C(O)=C2\C(=O)C(=O)N(c3ccccn3)C2c2ccccc2F)cc1C (stereo unspecified)	0	-6	0	3	-14	-13	i	16
CC(=O)N1CCOc2ccc(S(=O)(=O)N3CCN(c4cc(C)ccc4C)CC3)cc21	-10	-8	-11	-13	-21	8	i	3
Cc1nc(/C=C/c2ccccc2)[nH]c(=O)c1-c1ccccc1	/	2	1	-9	/	46	i	-11
CCOc1ccc(NC(=O)CC(=O)Nc2ccc(OCC)cc2)cc1	-2	-3	-4	0	-7	-6	i	11
CN1CCC(N(C)S(=O)(=O)c2ccc(Cl)cc2)CC1	-21	8	-6	5	-29	18	i	4
O=C(Nc1ccc(CN2CCOCC2)cc1)c1cc(Br)ccc1Cl	4	-3	6	2	-7	/	i	-4
O=C(CSc1n[nH]c(=O)[nH]c1=O)c1ccc([N+](=O)[O-])cc1	-13	10	7	3	/	6	i	5
Cc1ccc(CNc2nc3ccccc3n3nnnc23)cc1	/	?	-10	5	/	-5	i	?
COc1cccc(C(=O)N/N=C(\C)CC(=O)Nc2ccc(N(C)C)cc2)c1	-5	-4	-4	3	-16	-9	i	6
Cc1ccc(-c2nc(N/N=C/c3cccnc3)c3ccccc3n2)cc1	/	8	-15	0	-49	41	i	-7
COc1ccc(CNS(=O)(=O)c2c(C)[nH]c(C)c2C(=O)N2CCCC2)cc1	-1	8	2	1	25	-18	i	-8
O=C(CN1C(=O)C2CC=CCC2C1=O)NCC(=O)Nc1ccc(F)c(F)c1 (stereo unspecified)	2	/	-1	-4	-12	3	/	/
Cc1ccc(N(C(=O)CC2NC(=O)NC2=O)C2(C(=O)NC3CCCC3)CCCCC2)cc1 (stereo unspecified)	/	0	6	6	-4	/	i	19
CCOc1ccc(/C=C/C(=O)OC(C)C(=O)NC2CCCCC2C)cc1OC (stereo unspecified)	18	/	2	2	-27	-3	i	/
C[C@H](CO)N1C[C@H](C)[C@@H](CN(C)C(=O)Nc2ccc3c(c2)OCO3)Oc2ccc(NC(=O)Cc3ccccc3)cc2C1=O	1[16.7 µM]	/	1	0	-1&-2	-26	/	/
CCCn1nc(NS(=O)(=O)c2ccccc2)c2cc3cc(C)ccc3nc21	-5	2	13	3	-19	-5	i	-4
CC(=O)N1CCC(C(=O)NC2CCCc3c2cnn3-c2cc(F)cc(F)c2)CC1 (stereo unspecified)	-15	-4	2	-2	4	-20	i	-7
Cc1ccc2c(c1)C1CCCC3C1N2CC(=O)N3Cc1ccccc1 (stereo unspecified)	/	0	/	/	/	5	i	14
CC1CC(N(C(=O)c2ccc(Cl)cc2)c2ccccc2)c2ccccc2N1C(=O)c1ccco1 (stereo unspecified)	/	-4	-13	-17	5	22	i	7

Structural class, the compounds so far with a nitro group on carbon.
SMILES	Env fusion inh	eIF4H inh	MT1-MMP act inh	MT1-MMP act inh RFP	Yeast UUG start	CSC inhib	Rce1 inh	PABP polyA inh	others
Cc1cc(CNC(=O)c2cccc([N+](=O)[O-])c2)c2ccccc2n1	61*	-2	-4	-12	-2	-1	i	8
O=C(CSc1n[nH]c(=O)[nH]c1=O)c1ccc([N+](=O)[O-])cc1	-13	10	7	3	/	6	i	5

Following part:
SMILES	Env fusion inh	eIF4H inh	MT1-MMP act inh	MT1-MMP act inh RFP	Yeast UUG start	CSC inhib	Rce1 inh	PABP polyA inh	others
COc1ccc(C)cc1S(=O)(=O)Nc1cc2c3c(c1)CCC(=O)N3CCC2	-9	/	2	-2	-1	/	i	/
CCOc1ccccc1NC(=O)c1cc(-c2cc(OC)c(OC)c(OC)c2)nc2ccccc12	10	6	-2	-1	-12	-9	i	8
Cc1ccc(NC(=O)COC(=O)Cc2csc(-c3ccc(Cl)cc3)n2)cc1C	-11	2	-1	1	-10	-4	/	-2
Cc1cc2ccccc2n2c(SCC(=O)NCC3CCCO3)nnc12 (stereo unspecified)	-5	-9	/	/	/	-1	i	-3
O=C(COC(=O)C1=COCCO1)NCc1ccc(Cl)cc1	5	9	-5	-4	/	19	i	-2
O=C(O)c1cc(NS(=O)(=O)c2ccc(F)cc2)cc(NS(=O)(=O)c2ccc(F)cc2)c1	9	/	-1	2	-10	11	/	/
Cc1nn(C)c(C)c1S(=O)(=O)NC1CCCc2ccccc21 (stereo unspecified)	-50	-7	0	2	5	/	/	-11
CN(CCc1ccccn1)Cc1ccc(Cl)cc1	/	-3	10	-1	11	-18	i	29
Cc1cc(N2CC(C)OC(C)C2)n2cc(-c3ccccc3)nc2n1 (stereo unspecified)	8	3	3	2	-8	3	i	73	eIF4H inh retest=1;PABP polyA inh retest=0
CCOC(=O)Cn1c(=O)n(C2CCCC2)c(=O)c2ccccc21	/	-3	1	3	3	-7	i	2
COc1ccc(NC(=O)C2CCC(N3C(=O)C4CCCCC4C3=O)CC2)cc1 (stereo unspecified)	-6	8	4	7	-2	/	i	9
CCC(CO)Nc1ccc(-c2nn(C)c(=O)c3ccccc23)cc1[N+](=O)[O-] (stereo unspecified)	-19	-4	-1	-5	/	5	i	0
CN(C)CCCN(C(=O)c1ccc(S(=O)(=O)N(C)Cc2ccccc2)cc1)c1nc2cc3c(cc2s1)OCO3	-2	-13	2	-1	14	7	i	-18
CC(OC(=O)C1CC(=O)N(Cc2ccco2)C1)C(=O)Nc1cccc(C#N)c1 (stereo unspecified)	-2	/	6	3	-16	/	/	/
COc1ccccc1C(=O)NC(=O)COC(=O)c1cccc(OC(F)F)c1	-22	/	2	4	-6	-3	i	/
CC1CN/C(=C\C(=O)c2ccccc2)C(=O)N1 (stereo unspecified)	/	-8	2	1	-30	-1	/	-2
Cc1c(O)c(=O)ccn1C	/	5&-1	4	6	1	3	i	-8&10
Cc1nn(C)cc1C(C)NC(=O)c1cc(COc2c(F)cccc2F)on1 (stereo unspecified)	-3	1	0	1	/	7	i	1
Cc1nonc1C(=O)N1CCCC(Nc2ccc(C(C)C)cc2)C1 (stereo unspecified)	15	-7	0	-5	-14	25	i	-1
COc1ccc(CNc2oc(COc3ccccc3)nc2C#N)cc1	41	-5	3	0	8	7	i	8
Cn1c(=O)c2c(ncn2CCNC2=NCCCCC2)n(C)c1=O	1	0	1	2	/	0	i	3
O=C(CN1CCN(Cc2ccccc2)CC1)Nc1ccc2c(c1)CCC2	16	-7	-1	0	/	-4	i	1
O=C1NCCCC1C(=O)N/N=C/c1ccccc1O (stereo unspecified)	-29	6	3	3	/	/	i	-12
O=C(NCCN1CCOCC1)c1sc2cc(Cl)ccc2c1Cl	4	4	5	2	-10	-12	i	6
COCc1cc(=O)[nH]c(/N=C(\N)Nc2ccc(C)cc2C)n1	5	3	3	1	/	-14	i	0
SMILES	Env fusion inh	eIF4H inh	MT1-MMP act inh	MT1-MMP act inh RFP	Yeast UUG start	CSC inhib	Rce1 inh	PABP polyA inh	others
c1ccc(-c2cc3cc4c(cc3cn2)OCO4)cc1	i	/	-8	-5	-31	6	/	/
COCc1ccc(C(=O)NC(C)c2cnn(-c3ccccc3C)c2C)o1 (stereo unspecified)	1	1	3	1	-22	-6	i	-4
CCN(CC(=O)Nc1cccc(OC)c1)CC(=O)Nc1ccc(C)cc1Cl	7	1	2	1	/	-16	i	-2
Cc1cc(C)c(C#N)c(SCc2ccccc2[N+](=O)[O-])n1	21	-6	-2	0	-11	2	i	-19
O=C1CN(S(=O)(=O)c2ccccc2)CCN1	-12	/	-5	1	/	-10	/	/
O=C(Nc1cccc(-c2cn3cccnc3n2)c1)c1ccco1	/	-12	9	-1	-13	-11	?	5
Cc1ccc(NC(=O)Cc2nnc(SCC(=O)Nc3ccc(N4CCOCC4)cc3)n2C)cc1	-18	-4	1	1	-15	-5	i	0
Cc1cc2cc3c(N)[nH]nc3nc2cc1C	-13	-6	16	-1	-25	-11	i	-4
COc1cc(C(=O)OCc2cc(=O)oc3c(C)c(C)ccc23)ccc1OC(F)F	20	-1	-3	-3	-12	/	i	4
O=c1ccc(S(=O)(=O)N2CCCC2)c[nH]1	-8	/	-3	3	-18	-6	/	/
CC(=O)Nc1ccc(-c2cc(C(=O)O)c3ccccc3n2)cc1	3	-7	6	3	-18	-4	/	3
Cc1nn(CC(=O)NCCN2CCCCCC2)c(=O)c2nn(-c3ccccc3)c(C)c12	-6	8	2	4	-4	-11	i	10
O=C(OCC(=O)c1ccc[nH]1)c1ccc(C(F)(F)F)cc1	12	/	-2	-1	-3	-8	/	/
CCNC(=S)NNC(=O)Cn1nc(C)cc1C	/	-8	-3	6	/	/	i	12
CCCc1nnc(NC(=O)CCC(=O)N2CCC(Cc3ccccc3)CC2)s1	-2	-10	-1	-5	-18	-12	i	7
O=C(Nc1cccnc1)c1ccc(CN2CCc3ccccc3C2)cc1	54*	-5	-1	-4	-21	-2	i	-6
COc1ccc(OCCNC(=O)C(Cc2c[nH]c3ccccc23)NC(C)=O)cc1 (stereo unspecified)	9	-6	-2	6	/	2	i	7
O=C(O)c1cccc(CSc2nnc(-c3cccnc3)o2)c1	-2	-4	-6	1	-2	/	i	13
CC(C)Cc1ccc(S(=O)(=O)Nc2cccnc2)cc1	-7	4	1	-13	-8	-5	/	4
CCOC(=O)CC(NC(=O)Cc1ccccc1)c1ccccc1Cl (stereo unspecified)	-5	30	1	-1	-2	-5	i	8
O=C(Nc1cccnc1Cl)c1cccnc1Cl	i	2	2	2	-17	14	i	8
CC(C)Oc1cccc(C(=O)NC(=S)NCc2cccnc2)c1	31	3	5	-3	/	6	i	-4
Cc1nn(-c2ccccc2)c(C)c1/C=N/NC(=O)CSc1nnc(SCc2cccc3ccccc23)s1	25	2	-3	-9	/	-1	i	-6
CCOc1ccc2nc(SC3CC(=O)N(c4ccc(C)cc4)C3=O)sc2c1 (stereo unspecified)	/	-2	1	0	-20	-3	i	-4
COc1ccc(-n2c(=O)c3c4c(sc3n(CC(=O)NCc3ccco3)c2=O)CCC4)c(OC)c1	/	8	1	-6	-10	/	i	-6
Cc1ccc(S(=O)(=O)Oc2cccc(N3C(=O)C4CC=CCC4C3=O)c2)cc1 (stereo unspecified)	6	-9	5	-3	-12	20	i	-6
